# PKD1 kinase inh = inhibitors of human PKD1 kinase, biochemical, fluorescence polarization. Serine/threonine-protein kinase D1 (Homo sapiens), Q15139. PKD1 kinase fluorescence polarization assay. inhibition, %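 (about 10 µM by stock and volumes)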. 0.056% of 200,000 active;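 active means inhibition of 50% or more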;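 further: controls were vehicle for no effect and a reference inhibitor for full effect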
# RGS16-Gao = modulators of RGS16 binding to Galphao, primary screen, biochemical, human proteins, multiplexed bead flow cytometry; Regulator of G-protein signaling 16 (Homo sapiens) + Guanine nucleotide-binding protein …; bead-based flow cytometry RGS16-Galphao binding, fluorescence; actives lie on both sides; binding response (% of control), % at 10 µM; 0.38% of 220,000 active; AID 1441, 2008;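 active means below 25% or above 175%, edge rows of some plates excepted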;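 further: Galphao activated by GDP with aluminum fluoride before binding; 100% = wells without compound and 0% = beads without RGS; some results beyond the cut were filed as inactive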
# Target sequence (O15492 whole entry, looked up): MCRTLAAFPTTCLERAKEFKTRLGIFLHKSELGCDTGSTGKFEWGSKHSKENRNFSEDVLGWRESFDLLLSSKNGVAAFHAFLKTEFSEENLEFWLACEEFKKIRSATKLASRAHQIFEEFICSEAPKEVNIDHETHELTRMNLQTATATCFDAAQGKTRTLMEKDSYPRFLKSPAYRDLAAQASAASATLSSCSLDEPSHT
# Target sequence (P09471 whole entry, looked up): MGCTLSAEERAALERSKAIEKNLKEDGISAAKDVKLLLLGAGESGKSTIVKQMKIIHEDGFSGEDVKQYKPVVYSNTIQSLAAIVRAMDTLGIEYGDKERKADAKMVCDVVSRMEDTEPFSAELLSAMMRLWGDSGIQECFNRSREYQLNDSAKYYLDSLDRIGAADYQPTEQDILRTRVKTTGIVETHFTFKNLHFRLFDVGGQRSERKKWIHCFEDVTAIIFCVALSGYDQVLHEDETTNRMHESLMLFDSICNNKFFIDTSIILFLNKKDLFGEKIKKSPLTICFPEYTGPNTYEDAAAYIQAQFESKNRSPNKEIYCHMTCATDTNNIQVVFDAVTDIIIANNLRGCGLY
# HSV augment = enhancers of HSV replication in host cells, fold increase, host cell viability; HSV replication augmentation in cells; AID 1956, 2009; 0.005% of 220,000 active; maximum fold increase;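 active means peak rise of 1.5-fold or more in the series; inconclusive means self-fluorescent or not available for retest; tested in PC3 cells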;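 further: first round at 10 µM; read as green reporter fluorescence; hits show the peak of a series up to 25 µM; 1 = signal of infected wells without compound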
# GALR2 agonist = GALR2 receptor agonists, primary screen, cell-based. Galanin receptor type 2 (Homo sapiens), O43603. GALR2-expressing cells, agonist activation read-out. activation, %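 (tested at 5 µM)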. 0.48% of 140,000 active;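 active means above mean plus 3 SD of all compounds, about 5% in these data, not always enough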;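 further: 0% = vehicle buffer wells and 100% = reference agonist at full effect; tested in CHO reporter cells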
# Target sequence (O43603 whole entry, looked up): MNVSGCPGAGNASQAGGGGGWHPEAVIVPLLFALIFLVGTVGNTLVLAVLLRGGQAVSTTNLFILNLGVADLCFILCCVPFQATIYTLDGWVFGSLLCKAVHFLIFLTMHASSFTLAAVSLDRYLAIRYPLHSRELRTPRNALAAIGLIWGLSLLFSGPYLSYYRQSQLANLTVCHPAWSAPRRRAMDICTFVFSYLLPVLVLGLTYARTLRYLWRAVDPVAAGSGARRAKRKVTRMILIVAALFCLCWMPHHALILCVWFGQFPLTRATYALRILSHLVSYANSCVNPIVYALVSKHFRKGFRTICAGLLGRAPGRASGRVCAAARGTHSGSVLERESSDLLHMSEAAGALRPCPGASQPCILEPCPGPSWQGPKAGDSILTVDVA
# INS promoter inh = inhibitors of insulin promoter-driven GFP, primary screen, imaging, TRM-6 cells (human fetal islet line), eGFP reporter, cell count; reporter expression induced with tamoxifen; inhibition, % at 2 µM; 0.9% of 130,000 active; AID 1273, 2008;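 active means inhibition above the mean plus 3 SD, with well images judged a real hit on visual review, cut at about 60% in these data, passing the limit was not always enough; inconclusive means inhibition over the cutoff but images rejected on review; inactive means inhibition not above the cutoff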
# INS promoter inh cell count = second read-out of INS promoter inh, no call of its own (marks repeat the call); normalized cell count, %; measured here: cell count, toxicity; reference of the scale not given here;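 cells exposed to compound for 48 h; stained nuclei by imaging scaled within each plate; lower means fewer cells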
# HSV augment primary fold = second read-out of HSV augment, no call of its own (marks repeat the call); fold increase; compound at 10 µM; measured here: primary screen fold increase 10 uM; tested in PC3 cells;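 GFP signal in the first replicate; 1 = infected wells without compound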
# * = called active by the depositor; i = inactive; ? = inconclusive; / = no result given.
no.	Structure	PKD1 kinase inh	RGS16-Gao	HSV augment	HSV augment primary fold	GALR2 agonist	INS promoter inh	INS promoter inh cell count
1	COc1ccc(NC(=S)NN2CCN(C)CC2)cc1	-16	102	i	0.96	-1.0	23	59
2	CCOc1ccc(NC(=O)C2CCCN(C)C2)cc1 (stereo not drawn)	/	101	i	1.1	/	/	/
3	CN(C)CCOC(=O)CCCCCCCCC(=O)OCCN(C)C	/	99	i	0.92	/	/	/
4	COC(=O)c1c(-c2ccc(C)cc2)csc1NC(=S)NC(=O)c1cc(OC)cc(OC)c1	-5	94	i	0.95	-1.1	/	/
5	COC(=O)c1ccc(NC(=S)NC2CC(C)(C)NC(C)(C)C2)cc1	-6	109	i	0.82	-1.3	31	99
6	Cc1ccc(N=C(N)N=C(N)N)c(C)c1	/	100	i	0.88	/	/	/
7	CCOc1cc(/C=C2\SC(=O)N(c3ccc(O)cc3)C2=O)ccc1O	/	96	?	/	/	/	/
8	CC(C)C1Oc2ccccc2N(CC(=O)N(Cc2ccccn2)CC2CCCO2)C1=O (stereo not drawn)	-8	110	i	0.79	-1.9	/	/
9	CCN(CC)CCN1C(=O)C(O)=C(C(=O)c2ccc(C)o2)C1c1ccccn1 (stereo not drawn)	14	/	i	1	-0.1	-230	66
10	CC(=O)N1C(O)CC(C)N1c1ccccc1 (stereo not drawn)	-6	109	/	/	-1.1	15	87

# Two entries drawn at random from those above, as already listed:
no.	Structure	PKD1 kinase inh	RGS16-Gao	HSV augment	HSV augment primary fold	GALR2 agonist	INS promoter inh	INS promoter inh cell count
9	CCN(CC)CCN1C(=O)C(O)=C(C(=O)c2ccc(C)o2)C1c1ccccn1 (stereo not drawn)	14	/	i	1	-0.1	-230	66
1	COc1ccc(NC(=S)NN2CCN(C)CC2)cc1	-16	102	i	0.96	-1.0	23	59

# (listing goes on)
no.	Structure	PKD1 kinase inh	RGS16-Gao	HSV augment	HSV augment primary fold	GALR2 agonist	INS promoter inh	INS promoter inh cell count
11	Cn1c(=O)c2c(nc(CN3CCN(CCO)CC3)n2Cc2cccc3ccccc23)n(C)c1=O	7	99	i	0.91	-1.3	9	84
12	Cc1cccc(NC(=S)N/N=C/c2cccc(O)c2)c1C	/	110	i	0.75	/	/	/
13	Cc1ccc(N2C(=O)C(NC(=O)c3ccccc3F)(C(F)(F)F)C3=C2CC(C)(C)CC3=O)cc1 (stereo not drawn)	2	101	i	0.92	-0.2	29	120
14	CCOC(=O)N1CCN(S(=O)(=O)c2cc(OCC)ccc2OCC)CC1	-6	99	i	0.99	-1.1	11	106
15	Cc1ccc(NC(=O)CN2C(=O)S/C(=C\c3ccc(-c4cccc(C(=O)O)c4C)o3)C2=O)cc1C	-8	107	i	1	/	67	82
16	O=C(CCN1CCN(c2ccccc2)CC1)N/N=C/c1ccccc1OC(F)F	0	100	i	0.97	/	/	/
17	Cn1nnnc1SCC(=O)NC(=O)c1cccc([N+](=O)[O-])c1	/	102	i	0.88	/	/	/
18	CNC(=S)N(CCc1ccc(S(N)(=O)=O)cc1)C1CC(=O)N(c2ccccc2F)C1=O (stereo not drawn)	-8	102	i	1	/	/	/
19	Nc1nccc(-c2cc(-c3ccc(Cl)cc3Cl)no2)n1	/	99	i	0.98	/	/	/
20	Fc1ccccc1C(c1nnnn1Cc1ccc2c(c1)OCO2)N1CCN(Cc2ccccc2)CC1 (stereo not drawn)	6	103	i	1.1	-0.1	-282	53
21	CCOC(=O)c1sc(N)c(C(=O)Nc2ccccc2OC)c1C	7	78	i	0.69	/	-55	57
22	CSc1nc2ccc(NC(=O)c3cc4ccccc4o3)cc2s1	2	105	i	0.91	-0.5	/	/
23	Cc1nnc(NC(=O)CSc2ccc3nnc(-c4ccccn4)n3n2)s1	-6	105	i	1.1	/	27	84
24	CN(C(=O)COC(=O)/C=C/c1cccc([N+](=O)[O-])c1)C1CCS(=O)(=O)C1 (stereo not drawn)	/	98	i	0.93	/	/	/
25	COc1ccc(C(=O)NC2CCN(C(=S)Nc3ccc(C)c(C)c3)CC2)cc1	-2	97	i	0.87	-1.5	20	179
26	CCOc1ccc(C(=O)Nc2ccc(-c3cc4ccccc4oc3=O)c(C)c2)cc1[N+](=O)[O-]	-6	110	i	0.8	-1.1	-5	118
27	CC(=O)Nc1ccc(Oc2cc(N)cc([N+](=O)[O-])c2)cc1	6	107	i	1.2	/	/	/
28	CC(C)OCCCNS(=O)(=O)c1ccc2ccccc2c1	-5	95	i	1	-3.3	7	109
29	S=c1nc(-c2ccc(Br)cc2)oc2c1CCCC2	-5	103	/	/	-1.9	39	93
30	Cc1ccc(S(=O)(=O)/C(C#N)=C/c2c(Oc3ccc(Cl)cc3)nc3c(C)cccn3c2=O)cc1	4	104	i	0.9	-0.8	25	153
31	O=C(c1ccc(F)cc1)C1CCN(C(=O)Nc2ccc(F)cc2)CC1	-6	99	i	0.87	-0.3	14	81
32	CCN1CCN(Cc2ccc(NC(=O)Nc3cccs3)cc2)CC1	-1	103	i	1	-2.4	18	99
33	Nc1c(Cl)ncnc1N1CCOCC1	-6	101	i	0.78	-2.5	-79	86
34	Cc1cccc(-n2c(N)cc(=O)nc2SC(C)C(=O)NC2CCCCC2)c1 (stereo not drawn)	2	104	i	0.68	-1.8	36	91
35	Cc1nc(N2CCN(C)CC2)c2sc(=S)n(-c3ccccc3)c2n1	-9	100	i	0.85	0.9	-57	130
36	Cc1ccc(C)c(C(=O)CSc2n[nH]c(C)n2)c1	-6	99	i	0.83	-2.5	/	/
37	Cc1ccc(NC(=O)C(=O)NCCOc2ccc(Cl)cc2)c(C)c1	2	99	i	0.82	-2.7	30	142
38	CCOC(=O)C1(C)C=C(Nc2ccc(OC)cc2)C(=O)N1c1ccc(OC)cc1 (stereo not drawn)	5	92	i	1.1	-0.4	-109	147
39	C=CCC(C#Cc1ccccc1)[N+](C)(C)CC=C (stereo not drawn)	-13	101	i	0.94	-1.6	-11	79
40	CCCCCOCC1CC(C/C(C)=N/NC(N)=S)C(=O)O1 (stereo not drawn)	4	124	i	1	-1.2	21	84
41	CCCCNC(=O)CC1N=C2c3ccccc3N=C(SCC(=O)Nc3cccc(C)c3)N2C1=O (stereo not drawn)	-8	96	i	0.82	-1.1	/	/
42	O=[N+]([O-])c1ccccc1OCCOCCOc1cccc2cccnc12	3	97	i	0.95	-1.0	7	108
43	CCOC(=O)C1(Cc2ccccc2)CCN(Cc2cccc(OC)c2O)CC1	-4	107	i	0.99	/	/	/
44	Cc1ccc2c(c1)C(c1ccccc1)N(C(=O)c1ccc(S(=O)(=O)N3CCOCC3)cc1)CC(=O)N2 (stereo not drawn)	-3	93	i	0.95	0.4	14	109
45	O=C(Nc1ccc(F)cc1)C(=O)c1c(O)[nH]c2ccc([N+](=O)[O-])cc12	/	91	i	1	/	/	/
46	Cc1ccc2c(C)nc(Nc3nc(CSc4nnnn4-c4ccccc4)cc(=O)[nH]3)nc2c1	2	110	/	/	1.4	-15	116
47	Cc1nn(C)cc1CNC(=O)c1cnn2c1NC(c1ccc(Br)cc1)CC2C(F)(F)F (stereo not drawn)	-8	100	i	0.93	0.7	19	134
48	N#CC(C(=O)Nc1ccc(Cl)c(Cl)c1)=C1Nc2ccccc2N1	-10	102	i	0.97	-0.9	39	128
49	CCN(CC)S(=O)(=O)c1ccc2oc(C(=O)NCCCN3CCOCC3)c(C)c2c1	2	109	i	1.1	0.2	21	77
50	CCOC(=O)N1CCC(NC(=O)c2cc(C(=O)Nc3cccc(C(F)(F)F)c3)ccc2CO)CC1	-10	101	i	0.96	/	50	122
51	O=C(c1cccnc1)N1CCN(c2ccccc2Cl)CC1	/	89	i	0.91	/	/	/
52	COc1ccc(/C=C(\NC(=O)c2ccccc2)C(=O)NCCC(=O)O)cc1	6	109	i	1	/	/	/
53	Cc1ccc(CN2CCN(CC(=O)NC(C)c3ccc4c(c3)OCCO4)C2=O)cc1 (stereo not drawn)	21	94	i	0.9	-3.4	/	/
54	Cc1onc(-c2ccccc2)c1C(=O)Nc1ccccc1C#N	-1	67	i	0.97	-3.2	/	/
55	COC(=O)C1=C(C)N(c2ccc(OC)cc2)C(C)=C(C(=O)OC)C1c1ccc(OC)cc1	/	97	i	0.95	/	/	/
56	CCCCn1c(N)c(NCCC)c(=O)[nH]c1=O	-2	93	i	0.94	0.0	9	104
57	Cc1ccc(Cl)cc1NC(=O)C1CCCCC1C(=O)O (stereo not drawn)	2	103	i	1.2	/	-58	54
58	Cc1cc(/C=N/n2cnnc2)c(C)n1-c1ccc(OCc2ccccc2F)cc1	-3	105	i	0.89	-0.7	6	127
59	CCCOc1nc2c(c(=O)n(C)c(=O)n2C)n1C	/	97	i	1.1	/	/	/
60	Cc1ccc(-c2c[n+](Cc3ccc(Cl)cc3)c3n2CCC3)cc1	/	99	i	1	/	/	/

# (continued)
no.	Structure	PKD1 kinase inh	RGS16-Gao	HSV augment	HSV augment primary fold	GALR2 agonist	INS promoter inh	INS promoter inh cell count
61	CSc1ccc(NC(=O)c2cccnc2)cc1C#N	-3	97	i	0.97	/	/	/
62	C#Cc1ccc([C@H]2C=C(C(=O)N3CCN(Cc4ccc5c(c4)OCO5)CC3)O[C@@H](OCC)[C@@H]2CCCO)cc1	7	93	i	0.91	/	/	/
63	Cc1nnc(NC(=O)CSc2nnc(C)n2Cc2ccccc2)s1	-6	84	i	0.86	-1.4	0	121
64	c1ccc2c(N3CCOCC3)nc(-c3ccncc3)nc2c1	6	98	i	0.94	-1.6	24	69
65	CCc1ccc(Nc2nnc(SCC(=O)Nc3sccc3C(N)=O)s2)cc1	1	107	i	0.99	-0.8	7	72
66	O=C(OCc1ccc(Cl)cc1Cl)c1ccncc1	-2	114	i	1	-1.8	/	/
67	O=C(Nc1ccccc1N1CCOCC1)c1ccc2nc[nH]c2c1	-2	109	i	0.83	/	24	145
68	O=C(O)c1cc(C(=O)O)cc(-c2ccc(/C=c3/sc4nc5ccccc5n4c3=O)o2)c1	4	93	i	0.96	/	/	/
69	COC(=O)c1ccc(C(=O)OC)c(NC(=S)N2CCN(c3cc(Cl)ccc3C)CC2)c1	-14	104	i	0.97	-0.4	/	/
70	COc1ccc(NC(=O)CN(c2cc(C)cc(C)c2)S(=O)(=O)c2c(C)n[nH]c2C)cc1	6	94	i	0.97	-2.9	/	/
71	O=C(C1CC1)n1cc(C(=S)N2CCOCC2)c2ccccc21	0	99	i	0.92	-1.9	/	/
72	O=S(=O)(Nc1ncnc2sc3c(c12)CCC3)c1ccc(Cl)s1	-5	102	i	0.91	-0.6	-107	58
73	CSCCC(C(=O)OCC(=O)c1ccc(C)c(C)c1)N1C(=O)c2cc(Cl)c(Cl)cc2C1=O (stereo not drawn)	-3	98	i	0.87	-1.2	-13	79
74	COc1ccccc1NC(=O)C(C)NS(=O)(=O)c1ccc(Cl)cc1 (stereo not drawn)	-1	99	i	0.86	-3.0	/	/
75	COC(=O)c1sccc1NN1C(=O)c2ccccc2C1=O	/	90	i	1.2	/	/	/
76	Cc1ccc(OCC(=O)NNc2c3ccccc3nc3ccccc23)cc1	-6	93	i	0.78	-1.0	-17	123
77	Fc1ccc(-n2c(-c3ccco3)nc3nc4ccccc4nc32)cc1	-3	78	?	/	-0.3	/	/
78	CCCCCCOc1ccc(N2C(=O)CC(NCCc3ccc(S(N)(=O)=O)cc3)C2=O)cc1 (stereo not drawn)	-4	97	i	0.9	-0.7	21	100
79	Cc1cc(=O)oc2cc(OC(=O)CCCCCN3C(=O)c4ccccc4C3=O)ccc12	11	103	i	0.99	-0.1	/	/
80	Cc1ccc(-n2nnc3c(SCC(=O)NCc4ccco4)ncnc32)cc1	-8	100	i	1	-1.4	37	78
81	O=C(C1CC(c2ccc(F)cc2)=NO1)N1CCN(c2ccccc2)CC1 (stereo not drawn)	-2	85	i	0.97	-2.2	/	/
82	CCc1nc2ccccc2n1CC(O)COCC1CC=CCC1 (stereo not drawn)	-3	101	i	0.88	/	/	/
83	COC(=O)Nc1nnc(Cc2ccccc2)s1	-1	99	i	1.1	-0.7	-18	80
84	Cc1cc(C)c(C#N)c(SCc2ccc3c(c2)OCO3)n1	-2	100	i	0.94	-2.6	26	166
85	CCCCNc1cc(Cl)nc(N)n1	/	103	i	1.2	/	/	/
86	COc1ccc(-c2[nH]ncc2CNCCn2cccn2)c(F)c1	1	99	i	1.1	/	/	/
87	CCOc1cc(C)c(Cl)cc1S(=O)(=O)N(C)C	-6	101	i	0.89	-2.1	18	93
88	CCOP(=O)(OCC)c1nc(-c2ccc(F)cc2)oc1NCc1ccccc1	0	96	i	0.92	/	/	/
89	O=C1C(Cc2c[nH]c3ccccc23)NC(=S)N1C1CCCCC1 (stereo not drawn)	2	102	i	1.1	/	-29	78
